Screening data: PubChem, several laboratories
CSC inhib – blocks cancer stem cells | cancer stem cell-like cells viability, luminescence | inhibition, % at 7.5 µM | actives 1.1% (n = 300,000) | AID 2717;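 active = mean at 75% or more and at least half the replicates too; inconclusive = mean and replicates disagree; tested in HMLE shEcad cells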;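 note: 0% = median of negative and 100% = median of positive control wells; the first replicate is given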
Env fusion inh – inhibitors of HIV Env-mediated cell fusion. HeLa-JRFL Env/CEM21 cell fusion, luciferase. inhibition, % at 12.3 µM. actives 1.1% (n = 360,000). AID 651610;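 active = mean replicate inhibition score of at least 50 and every replicate individually at or above 50; inconclusive = only one of the two criteria met; inactive = mean below 50 and not all replicates reaching 50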;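 note: 0% = plate neutral controls and 100% = maraviroc near 300 nM; one replicate is shown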
MT1-MMP act inh – blocks activation of human MT1-MMP. P50281. HT1080 RFP-PRO-GFP cells, GFP/RFP ratio fluorescence, overnight; percent of plate control window, DMSO zero. GFP/RFP ratio change, % at 20 µM. actives 0.061% (n = 360,000);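 active = GFP/RFP ratio change of at least 30% with cell ATP level not reduced by more than half and red fluorescence within 50% of control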; note: strong numbers were not always called active
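Assay system – RFP-PRO-GFP reporter HT1080 cells · Compound dosing – single dose of 20 µM compound, 1% DMSO final · Incubation – overnight compound exposure at 37 °C · Measure – GFP/RFP fluorescence ratio · Benchmarks – DMSO wells and RFP-L50D-GFP cells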
UUG fidelity – alters start codon recognition fidelity in yeast | S. cerevisiae UUG-firefly luciferase reporter, luminescence/redox ratio | activity score, % at 18.7 µM | AID 602363 | actives 0.13% (n = 350,000);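 active = replicate mean at a twofold rise or more, about +100% in these data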;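 note: firefly luciferase made from a UUG start codon reports start codon fidelity; reporter light over untreated wells divided by growth signal over untreated wells; some hits fall short of that in this replicate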
PABP polyA inh – PABP-poly(A) binding inhibition | P11940 | PABP-poly(A) RNA binding, fluorescence polarization | inhibition, % at 35 µM | actives 1% (n = 290,000);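 active = 50% or more with normal probe brightness, or confirmed in later tests; inconclusive = above 50% with abnormal brightness, or retests that disagree; inactive = below 50% or failed in later tests; about a fifth of its hits are not listed in these tables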;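 note: calls also rest on retests at 20 µM and on dose response follow-up; controls were probe without protein and protein plus probe with vehicle; some compounds called inactive have numbers as strong as hits; many hits fall short of the cut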
Target sequence (P11940 whole entry, looked up): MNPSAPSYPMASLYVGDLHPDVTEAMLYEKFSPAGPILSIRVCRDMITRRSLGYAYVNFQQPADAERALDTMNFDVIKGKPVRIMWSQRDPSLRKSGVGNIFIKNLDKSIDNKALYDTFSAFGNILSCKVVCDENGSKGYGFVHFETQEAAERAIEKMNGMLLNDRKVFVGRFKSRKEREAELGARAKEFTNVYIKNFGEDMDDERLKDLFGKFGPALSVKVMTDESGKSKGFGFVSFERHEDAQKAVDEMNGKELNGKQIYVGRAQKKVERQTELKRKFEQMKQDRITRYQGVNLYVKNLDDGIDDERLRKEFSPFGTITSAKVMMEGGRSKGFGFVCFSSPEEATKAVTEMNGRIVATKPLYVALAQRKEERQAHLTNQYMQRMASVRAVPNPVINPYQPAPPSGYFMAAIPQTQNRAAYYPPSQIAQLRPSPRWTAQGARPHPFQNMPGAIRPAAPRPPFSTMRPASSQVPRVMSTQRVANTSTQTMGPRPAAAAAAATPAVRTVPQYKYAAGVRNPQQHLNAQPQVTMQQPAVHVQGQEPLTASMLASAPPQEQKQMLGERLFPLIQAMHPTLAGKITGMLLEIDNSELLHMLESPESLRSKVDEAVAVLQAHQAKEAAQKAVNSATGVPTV
Rce1 inh – yeast Ras-converting enzyme inhibition; Q03530; yeast membranes, quenched prenylated peptide cleavage fluorescence; calls only; actives 0.27% (n = 290,000);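 active = fall in fluorescence gain of 50% or more versus controls, with final raw signal at or below 3038400; inconclusive = same 50% fall but final raw signal above 3038400; inactive = fall in fluorescence gain under 50%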;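 note: plate controls were neutral control wells for no effect and wells lacking membranes for full effect; tested at 10 µM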
Target sequence (Q03530 whole entry, looked up): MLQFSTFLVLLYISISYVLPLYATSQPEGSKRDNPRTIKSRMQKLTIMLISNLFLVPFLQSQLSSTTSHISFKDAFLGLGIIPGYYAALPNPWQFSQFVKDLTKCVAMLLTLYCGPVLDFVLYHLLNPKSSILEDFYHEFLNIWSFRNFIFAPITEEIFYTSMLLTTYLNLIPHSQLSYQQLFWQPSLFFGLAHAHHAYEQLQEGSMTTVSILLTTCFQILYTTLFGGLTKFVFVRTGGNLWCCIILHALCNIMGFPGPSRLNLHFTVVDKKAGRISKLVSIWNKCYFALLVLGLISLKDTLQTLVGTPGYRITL
eIF4H FP inh – inhibitors of RNA binding by human eIF4H | actives 0.94% (n = 290,000) | eIF4H fluorescence polarization binding assay | inhibition, % at 35 µM | Q15056;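 active = 50% or more with normal probe brightness, or confirmed in later tests; inconclusive = above 50% with abnormal brightness, or retests that disagree; inactive = below 50% or failed in later tests; about a fifth of its hits are not listed in these tables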;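 note: calls also rest on retests at 20 µM and on dose response follow-up; 0% = protein and probe with vehicle and 100% = probe without protein; strong numbers were not always called active; many hits fall short of the cut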
MT1-MMP act inh RFP – further read-out of MT1-MMP act inh, marked with its call; RFP signal change, %; measured here: RFP expression control read;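 0 = vehicle wells; hits needed this value within 50% of zero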
Active calls of the source: *; i = inactive; ? = inconclusive; / = no result given. The list is partial; count on the stated rates, not on these rows.

A first look:
canonical_smiles	Env fusion inh	CSC inhib	Rce1 inh	MT1-MMP act inh RFP	UUG fidelity	PABP polyA inh	eIF4H FP inh	MT1-MMP act inh
COc1ccc(C2CC(c3ccccc3)=NN2C(=O)COC(=O)/C=C/c2ccc(O)c(OC)c2)cc1 (stereo unspecified)	-5	-4	i	-3	-1	-3	-8	0
COc1ccc(S(=O)(=O)N2CCOC23CCN(S(C)(=O)=O)CC3)cc1	10	3	i	-1	18	/	/	0

This part in full, repeating the preview:
canonical_smiles	Env fusion inh	CSC inhib	Rce1 inh	MT1-MMP act inh RFP	UUG fidelity	PABP polyA inh	eIF4H FP inh	MT1-MMP act inh
COc1ccc(C2CC(c3ccccc3)=NN2C(=O)COC(=O)/C=C/c2ccc(O)c(OC)c2)cc1 (stereo unspecified)	-5	-4	i	-3	-1	-3	-8	0
COc1ccc(S(=O)(=O)N2CCOC23CCN(S(C)(=O)=O)CC3)cc1	10	3	i	-1	18	/	/	0
COc1cccc(C(=O)NC(Cc2ccccc2)c2ccc3c(c2)OCCCO3)c1 (stereo unspecified)	/	6	i	-9	1	-5	-3	-3
O=C(COC(=O)C1CC(O)CN1C(=O)Oc1ccccc1)c1ccc(Br)cc1 (stereo unspecified)	/	-7	i	2	/	5	-9	-2
O=C(O)/C=C/C(=O)Nc1ccc(-n2nccc2C(F)(F)F)cc1	-7	-16	i	/	-8	-3	-8	/
CN(c1cccc(NC(=O)CN(c2ccc(C34CC5CC(CC(C5)C3)C4)cc2)S(C)(=O)=O)c1)S(C)(=O)=O	/	48	i	-12	-8	8	-3	-9
O=C(NCc1cccnc1)C1CCN(S(=O)(=O)c2cc(Cl)ccc2Cl)CC1	-4	-7	i	-9	-14	-3	-6	-3
Cc1ccc(C)c(C(O)c2ncc(-c3cccc4ccccc34)[nH]2)c1 (stereo unspecified)	3	/	/	1	-2	/	/	0
O=S(=O)(c1ccc2ccccc2c1)n1cccn1	13	1	i	0	-9	3	-3	1
O=[N+]([O-])c1cccc(S(=O)(=O)N2CCC(c3nc(-c4ccncc4)no3)CC2)c1	/	7	i	-11	-24	-4	-5	-1
CCn1nnc(NC(=O)c2ccco2)n1	0	-6	i	3	-12	0	-7	0
COc1cc2c(cc1OC)C(c1ccc([N+](=O)[O-])cc1)N(C(C)=O)CC2 (stereo unspecified)	15	10	i	-1	-15	3	-14	5
O=C(NCc1ccco1)c1c(Cl)cccc1Cl	-3	/	/	2	-7	/	/	-7
COCCCNc1nc2c(c(=O)[nH]c(=O)n2C)n1CC(O)COc1ccccc1C (stereo unspecified)	0	-4	i	5	6	-4	1	-2
COC(=O)c1ccc(Oc2cc(C)nc(-n3nc(C)cc3C)n2)cc1	-37	55	i	-5	-28	-2	5	9

More structures follow:
canonical_smiles	Env fusion inh	CSC inhib	Rce1 inh	MT1-MMP act inh RFP	UUG fidelity	PABP polyA inh	eIF4H FP inh	MT1-MMP act inh
Cc1cc([N+](=O)[O-])nn1CC(=O)Nc1nc2ccccc2s1	-11	-7	i	-1	/	5	-7	0
CCn1ccnc1CN(C)C(=O)C1CCC(=O)N(Cc2cccc(C(F)(F)F)c2)C1 (stereo unspecified)	3	1	i	-2	-14	0	-3	-2
CCOC(=O)C1=C(CNC2CCCCC2)NC(=O)NC1c1cc(C)ccc1C (stereo unspecified)	/	-10	i	0	-4	8	2	-2
O=S(=O)(Nc1cccc(-n2cnnn2)c1)c1cccc(Cl)c1	-1	-8	i	0	/	19	-1	2
O=C1Nc2ccccc2C12OCC(COc1ccc(Cl)cc1)O2 (stereo unspecified)	?	10	i	-11	-36	4	3	-1
Cc1cc(N2CCCC2)nc(N2C3CCC2CC(O)(c2ccc(F)cc2)C3)n1 (stereo unspecified)	/	8	i	/	/	2	-5	/
CN(CC(=O)Nc1c(Cl)cccc1Cl)C(=O)CNC(=O)c1ccc2ccccc2c1	-3	3	i	-1	/	/	/	2
CCOC(=O)N1CCN(Cc2nnc(-c3cccc(Br)c3)o2)CC1	1	-4	i	-1	-1	0	-2	0
CCOc1cc(-c2cn(S(=O)(=O)c3cccc4nsnc34)nc2N)cc(OCC)c1OCC	66*	-13	i	-8	-15	6	-9	-7
Cc1occc1C(=O)N/N=C/c1cccnc1	/	-5	i	0	-11	-4	2	-1
COc1ccc(Cc2c(-c3cccc(Cl)c3)nc3ccc(C)cn23)c(C)c1	-22	/	/	-5	7	/	/	-7
CC(C)(C)OC(=O)C[C@@H]1C/C=C\C[C@@H](CC(=O)N(CCO)Cc2ccccc2)C(=O)N2CCC[C@@H]2COC1=O	-8	/	/	1	-4	/	/	-1
CCOc1ccc(C(=O)NNC(=O)CCNC(=O)c2ccco2)cc1OC	3	-13	i	6	6	/	/	1
CCSc1nnc(NC(=O)C2CC(=O)N(Cc3ccccc3)C2)s1 (stereo unspecified)	-2	-16	i	8	-7	-5	11	5
Fc1cccc(Cc2c(-c3cccc(Br)c3)nc3ccc(Br)cn23)c1	-34	/	/	5	-19	/	/	-3

7 entries already listed, sorted by count of non-hydrogen atoms, highest first.
canonical_smiles	Env fusion inh	CSC inhib	Rce1 inh	MT1-MMP act inh RFP	UUG fidelity	PABP polyA inh	eIF4H FP inh	MT1-MMP act inh
COc1ccc(C2CC(c3ccccc3)=NN2C(=O)COC(=O)/C=C/c2ccc(O)c(OC)c2)cc1 (stereo unspecified)	-5	-4	i	-3	-1	-3	-8	0
COCCCNc1nc2c(c(=O)[nH]c(=O)n2C)n1CC(O)COc1ccccc1C (stereo unspecified)	0	-4	i	5	6	-4	1	-2
O=[N+]([O-])c1cccc(S(=O)(=O)N2CCC(c3nc(-c4ccncc4)no3)CC2)c1	/	7	i	-11	-24	-4	-5	-1
O=C(COC(=O)C1CC(O)CN1C(=O)Oc1ccccc1)c1ccc(Br)cc1 (stereo unspecified)	/	-7	i	2	/	5	-9	-2
O=C1Nc2ccccc2C12OCC(COc1ccc(Cl)cc1)O2 (stereo unspecified)	?	10	i	-11	-36	4	3	-1
O=S(=O)(Nc1cccc(-n2cnnn2)c1)c1cccc(Cl)c1	-1	-8	i	0	/	19	-1	2
Cc1occc1C(=O)N/N=C/c1cccnc1	/	-5	i	0	-11	-4	2	-1

(listing goes on)
canonical_smiles	Env fusion inh	CSC inhib	Rce1 inh	MT1-MMP act inh RFP	UUG fidelity	PABP polyA inh	eIF4H FP inh	MT1-MMP act inh
OC[C@@H]1CN(CCN2CCOCC2)C[C@H](n2cnc3c(NC4CC4)ncnc32)O1	-5	/	/	0	0	/	/	0
CC(C)CNS(=O)(=O)c1ccc(CCC(=O)NCC2CCCO2)cc1 (stereo unspecified)	/	/	i	-5	2	-11	-11	12
CSc1nc(/C=C2\C=Nc3ccccc32)c(O)n1C	-9	-11	i	3	/	1	5	11
Cc1sc2nc(C)n(/N=C/c3ccc(O)cc3)c(=O)c2c1C	-73	-5	i	2	-7	8	-9	0
CC(=O)Nc1ccc(S(=O)(=O)NNC(=O)c2ccc(S(=O)(=O)N3CCCCC3)cc2)cc1	/	-9	i	1	-1	4	-5	-1
CCOc1ccc(NC(=S)N2CCN(S(=O)(=O)c3ccccc3)CC2)cc1	-1	6	i	1	-23	-15	0	-3
OCOCCCn1c(C2CCCN2c2nc(-c3ccc(F)cc3)cs2)nc2cc(Cl)c(N3CCCCC3)cc21 (stereo unspecified)	23	28	i	-3	-25	/	/	6
O=C(c1cccc(S(=O)(=O)N2CCCCC2)c1)N1CCN(S(=O)(=O)c2ccc(F)cc2)CC1	/	-14	i	-4	/	-3	0	-3
COc1ccccc1NC(=O)C(=O)N(c1cccnc1)C(C(=O)NC(C)(C)C)c1ccccc1 (stereo unspecified)	5	-4	i	2	-2	-5	-5	-2
O=S1(=O)CC(N2CCCC2)CN1C1CCCC1 (stereo unspecified)	-18	/	/	2	-13	/	/	2
Cc1ccc2oc(=O)c3cnn(CC(=O)N(Cc4ccco4)C4CCCCC4)c3c2c1	25	-2	i	0	-15	2	2	5
O=C(c1ccccc1F)N1CCN(CC2CC3C=CC2C3)CC1 (stereo unspecified)	/	18	i	1	1	32	-1	-1
CCOC(=O)Cc1csc(SCC(=O)Nc2ccc(C)cc2F)n1	-8	/	/	2	21	/	/	2
O=C(CCCn1c(=S)[nH]c2ccccc2c1=O)NCCSCc1ccccc1	15	0	i	1	-21	6	7	2
CCOc1ccc(N(CC(=O)Nc2ccc(C)c(C)c2)S(C)(=O)=O)cc1	-80	-1	i	-3	9	18	1	1

Next entries follow:
canonical_smiles	Env fusion inh	CSC inhib	Rce1 inh	MT1-MMP act inh RFP	UUG fidelity	PABP polyA inh	eIF4H FP inh	MT1-MMP act inh
CCc1ccc([C@H]2[C@@H]3C(=O)C[C@@H]4C(=O)N(C5CCCCC5)C(=O)[C@@H]4[C@@H]3CN2S(=O)(=O)c2ccc(C)cc2)cc1	155*	/	/	-5	-2	/	/	-7
S=c1[nH]c2cc(Cl)c3cccnc3c2o1	1	-11	i	4	16	4	11	1
Cc1ccc(C)c(N(C(=O)Cn2nnc3ccccc32)C(C(=O)NCc2ccco2)c2ccncc2)c1 (stereo unspecified)	/	26	i	8	-18	17	-7	2
COc1cc(/C=N/Nc2cccc3cccnc23)cc(OC)c1O	-75	7	i	-1	/	8	-6	-6
COc1ccc(CCNC(=O)c2ccco2)cc1	/	-8	i	-4	-30	2	-10	-3
CC(C)CC(=O)NCc1ccc2[nH]c3c(c2c1)CCCC3	-33	/	i	-2	-19	-2	21	-6
CCOc1ccc(OCC)c(NC(=O)CN(C)S(=O)(=O)c2ccc3nc(C)sc3c2)c1	/	16	i	-12	-17	7	-11	-7
CCN(CC)C(=O)C1CCCN(Cc2ccc(OC)c(C)c2)C1 (stereo unspecified)	-21	-8	i	-3	-1	1	-3	2
CCC1CCCCN1CCCNC(=O)C1CCC(=O)N1Cc1ccc(C)cc1 (stereo unspecified)	/	5	i	8	4	8	-9	1
CC(=O)CSc1ncnc2nc[nH]c12	/	-2	i	1	-19	7	-1	-2
COC(=O)c1scc(C)c1N/N=C(\C)c1ccc(F)cc1F	/	18	i	5	-19	-5	3	1
CCCCS(=O)CC(COCc1ccccc1)OC(=O)CSc1nc(C)cc(C)n1 (stereo unspecified)	/	-2	i	0	8	2	-7	-6
COc1cc2nc(Cl)nc(N3CCOCC3)c2cc1OC	-1	-16	i	3	/	-11	6	0
CCN(CC)S(=O)(=O)c1cc(NC(=O)CCCOc2ccc(C(C)=O)cc2)ccc1C	24	-5	i	-16	/	-1	-6	2
CC1(C)CC(N(Cc2cccs2)C(=O)c2ccco2)CCO1 (stereo unspecified)	/	-1	i	-2	-11	-1	5	-3
Cc1cc(NC(=O)c2ccc(COc3ccc(Cl)c(C)c3)o2)no1	4	-3	i	0	-8	4	-9	-1
